# Mtb H37Rv: Mycobacterium tuberculosis H37Rv growth inhibition, cell based, confirmatory dose response (AID 1949); M. tuberculosis H37Rv growth inhibition; one-dose inhibition, % at 10 µg/mL; IC50 in µg/mL for titrated hits; most inactive calls were filed without a number and no value below 0 was filed; 100,000 compounds, 1.6% hits;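 active = confirmed in a dose series; inconclusive = about 50% or more but not retested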;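 also: bacteria grown 7 days with compound before Alamar blue readout; 0% = untreated bacteria and 100% = reference antibiotic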
# Active calls of the source: *; i = inactive; ? = inconclusive. Not all compounds are listed (hit frequency here may not be typical).
SMILES,Mtb H37Rv
COc1ccc(CCNC(=O)C2CCN(C(=O)c3ccc([N+](=O)[O-])cc3)CC2)cc1,i
CC(=O)c1ccc(NC(=O)C2CC(=O)N(c3ccc(Br)cc3)C2)cc1 (centres undefined),i
CCOc1cc(C=O)ccc1OCC(=O)N1CCCC1,i
COc1ccc(Cl)cc1-c1nc(-c2ccc(NC(=O)c3ccncc3)cc2)no1,10.2%
CC1(C)CC(=O)C2=C(C1)NC1=C(C(=O)c3ccccc31)C2c1ccccc1C(F)(F)F (centres undefined),1.0%
CC1(C)CC2CC(C)(CN2C(=O)c2cnn3cc(Br)cnc23)C1 (centres undefined),i
CCOC(=O)c1c(C)n(Cc2ccccc2)c2ccc(OCC(O)CN3CCN(CCO)CC3)cc12 (centres undefined),7.3%
O=C(OCc1c(F)cccc1Cl)c1cnccn1,?
COc1ccc(N2CCN(CCCN)CC2)cc1,i
O=S(=O)(Nc1c(F)cccc1F)c1ccc(Br)cc1,i
CC1CC(C)CN(C(=O)c2cccc3ccccc23)C1 (centres undefined),7.3%
CC1CCN(C(=O)CSc2nnc(-c3cccs3)n2-c2ccccc2)CC1,i
C=C(C)c1ccccc1NC(=O)CN1C(=O)c2ccccc2S1(=O)=O,i
N#C/C(=C/c1ccc(-c2ccc(Cl)c(Cl)c2)o1)c1[nH]nc(N)c1C#N,i
O=C(CS(=O)(=O)Cc1ccccc1)Nc1cc(F)cc(F)c1,5.8%
COc1ccccc1-c1coc2cc(OCc3ccc([N+](=O)[O-])cc3)ccc2c1=O,i
COc1ccc(N2C(=O)c3ccccc3NC2c2ccc(Br)cc2)cc1 (centres undefined),4.1%
CC(=O)c1cccc(NC(=O)CN(c2cccc(Cl)c2)S(=O)(=O)c2ccc(Cl)cc2)c1,6.9%
COC(=O)c1ccc(C)c(NC(=O)c2ccc(Br)o2)c1,1.5%
CCCCC(=O)Nc1ccc(NC(=O)c2ccc([N+](=O)[O-])cc2)cc1OC,i
Cc1cccc(OCC(=O)Nn2cnnc2)c1,2.6%
O=C(NC(=S)Nc1ccccc1N1CCCCC1)C(c1ccccc1)c1ccccc1,15.4%
C=CCN(C(=O)c1ccccc1F)c1nnc(-c2ccc(Cl)cc2)s1,i
O=C(Nc1scc(-c2cccs2)c1C(=O)O)c1ccccc1F,2.2%
COc1ccc(N2CCN(C(=O)c3cccnc3)CC2)cc1,i
Cc1ccc(S(=O)(=O)Cc2cccc(C(=O)OCc3ccc(Br)cc3)c2)cc1,i
COc1ccccc1CNC(=O)c1ccc(N(C)S(=O)(=O)c2ccc(Cl)cc2)cc1,i
CC(C)(C)Oc1ncc(Br)c(OC(C)(C)C)n1,0.8%
COc1ccc(-c2cc(C(F)(F)F)nc(N3CCOCC3)n2)cc1,i
CCOc1cc(C=C2C(=O)NC(=O)NC2=O)cc(Br)c1OC(=O)c1ccco1,5.7%
Cc1cc(C)cc(CC2CC(=O)N(CCc3ccccc3)C2=O)c1 (centres undefined),3.7%
COc1cccc(-n2nnnc2SCC(=O)Nc2ccccc2)c1,i
CC(Oc1ccc(C(C)(C)C)cc1)c1nc(-c2ccncc2)no1 (centres undefined),22.8µg/mL*
CCCC(=O)Nc1ccccc1C(=O)Nc1ccc(OC)cc1,i
CCN(c1ccccc1)S(=O)(=O)c1ccc(NC(=O)COc2cc(C)cc(C)c2)cc1,2.3%
N#CC1=C(N)Oc2cc(Nc3ccccc3)ccc2C1c1ccccc1 (centres undefined),28.4%
CN(c1ccc(C(=O)N2CCc3ccccc3C2)cc1)S(C)(=O)=O,i
COc1cc(NC(=O)c2ccc(Cn3cc(Cl)cn3)o2)c(C(C)=O)cc1OC,i
CCOP(=O)(OCC)c1nc(-c2cccc3ccccc23)oc1NCc1ccccc1,i
COc1ccc(OC)c(-n2c(-c3cccc(O)c3)n[nH]c2=S)c1,i
CCOc1cc(C=O)cc(I)c1OCC(=O)NCc1ccccc1,i
Cn1c(=O)c2c(ncn2CC(=O)Nc2nnc(C3CCCCC3)s2)n(C)c1=O,i
CCN1CCCC1CNC(=O)C(=O)NC(C)c1ccccc1 (centres undefined),i
CCOC(=O)c1ccc(NC(=S)NCCc2ccccc2F)cc1,i
O=C(c1cn(-c2ccccc2)nc1-c1ccccc1)N1CCOCC1,i
COC(=O)Cc1c(C)c2ccc(OCC(=O)c3ccc(C)cc3)c(C)c2oc1=O,i
CCOc1cc(C(=O)Nc2sccc2C(N)=O)cc(OCC)c1OCC,i
CCn1cc(C(=O)O)c(=O)c2cc(F)c(N3CCN(C(=S)Nc4cc(Cl)cc(Cl)c4)CC3)cc21,i
CC(C)(C)NC(=O)c1cccc(NC(=O)c2ccc(Cl)cc2)c1,i
Clc1ccc(C2=NC(c3ccc(Cl)cc3)c3c(ccc4ccccc34)N2)cc1 (centres undefined),i
CCn1c(-c2ccncc2)n[nH]c1=S,i
Fc1cccc(COc2ccc(C(=S)N3CCOCC3)cc2)c1,i
Cc1ccc(-c2cc(C(=O)N3CCN(c4cccc(C(F)(F)F)c4)CC3)c3ccccc3n2)o1,7.9%
O=C(Oc1ccc(Cl)cc1Br)c1ccc(F)cc1,?
CC(C)(O)C(=O)NNC(=O)Nc1ccc(Cl)cc1Cl,i
CC(Oc1ccc(Br)cc1)C(=O)O/N=C(\N)c1ccncc1 (centres undefined),i
COc1ccc2c(c1)N(C(=O)CSc1n[nH]c(C)n1)C(C)(C)C=C2C,i
Cc1c(NC(=O)c2ccc(C(C)C)cc2)c(=O)n(-c2ccccc2)n1C,6.4%
CC(=O)Nc1ccc(C(=O)OCc2ccc(I)cc2)cc1,i
O=C(CSCc1ccccc1)N1CCCc2ccccc21,i
# Next structures.
SMILES,Mtb H37Rv
Cc1cc(-c2nc3ncccc3o2)ccc1NC(=O)c1c(F)c(F)c(F)c(F)c1F,i
COC(=O)C1=CN(Cc2ccc(OC)c(OC)c2)C=C(C(=O)OC)C1c1cccc(Cl)c1,i
CCCCc1cc(=O)oc2cc(OCC(=O)N3CCOCC3)ccc12,i
O=C(c1ccc(Sc2nnc(Cc3ccccc3)n2-c2ccccc2)c([N+](=O)[O-])c1)N1CCCC1,2.6%
CCOc1ccnc(SCC(=O)CC(=O)c2ccccc2)c1C#N,i
COc1ccc(C2(C(=O)NC(C)C)CCCC2)cc1OC,i
O=C(Nc1ccc(I)cc1)C1CCN(C(=O)c2ccccc2Cl)CC1,9.6%
CCc1ccc(OCC(=O)NC(=S)Nc2cccc(-c3nc4ccccc4s3)c2C)cc1,i
CCc1cc(=O)oc2c(CN(C)C)c(O)c(Cl)cc12,i
Cc1ccc(C(=O)N2CCN(c3cccc(Cl)c3)CC2)c(Cl)c1,8.1%
CCOC(=O)C1CCN(C(=O)CN(c2cccc([N+](=O)[O-])c2)S(C)(=O)=O)CC1,i
C=CCNCCOc1cc(C)ccc1C(C)(C)C,i
O=C(NCc1ccccc1)c1cn(-c2ccccc2)nc1-c1cc2ccccc2oc1=O,3.8%
CCOC(=O)C(C#N)C1(c2ccc(F)cc2)CCOC(C)(C)C1 (centres undefined),10.6%
C=CCn1c(SCC(=O)Nc2ccccc2C(=O)OC)nnc1-c1cccc(C)c1,i
Cn1ccnc1SCC(=O)Nc1ccc(Br)cn1,1.0%
CC1CN(S(=O)(=O)c2ccc(C3CCCCC3)cc2)CC(C)O1 (centres undefined),2.5%
COc1ccccc1NC(=O)CN(C)S(=O)(=O)c1ccc(F)cc1,i
CC(=O)c1ccc2c(c1)C1C=CCC1C(c1ccccc1[N+](=O)[O-])N2 (centres undefined),44.0%
Nc1nc(NCc2ccccc2)sc1C(=O)C12CC3CC(CC(C3)C1)C2,i
CN(CC(=O)N1CCc2ccccc2C1)S(=O)(=O)c1ccc2ccccc2c1,4.5%
CCN(CC)C(=O)c1ccc(C(C)C)cc1,i
COc1ccc(NS(=O)(=O)c2cc(N(C)S(=O)(=O)c3ccc(Cl)cc3)c(C)cc2C)cc1,6.2%
O=C(CSc1nc2ccccc2s1)N1CCCCC1,i
Nc1nc(SCC(=O)c2ccc(-c3ccccc3)cc2)n[nH]1,i
c1cnc(Nc2nc(-c3ccc4ccccc4c3)cs2)nc1,i
Cc1cccc(OCC(=O)N2CCN(C(c3ccccc3)c3ccccc3)CC2)c1,15.4%
CCOc1ccc(OCCCCn2ccnc2)cc1,i
CCCCCc1nnc(NC(=O)Cc2ccc(OC)c(OC)c2)s1,1.3%
CC1CN(C2CCN(Cc3ccccc3Br)CC2)CC(C)O1 (centres undefined),i
O=C(COc1cc2oc(=O)c3c(c2cc1Cl)CCCC3)N1CCCC1,i
CCOC(=O)C(C)Oc1ccc2c(=O)c(Oc3ccccc3Cl)coc2c1 (centres undefined),8.87µg/mL*
Cc1ccc(Sc2ccc(/C=C(/C#N)C(N)=S)cc2)cc1,2.0%
Cc1ccc(C)c(NC(=O)C2CCN(C(=O)c3cccs3)CC2)c1,i
Cc1ccc(NC(=O)c2c(F)c(F)c(F)c(F)c2F)cc1Cl,i
Cc1sc(NC(=O)c2cccc(F)c2)nc1-c1ccccc1,5.9%

# Quoted at random: two entries already listed
SMILES,Mtb H37Rv
Cc1ccc(NC(=O)c2c(F)c(F)c(F)c(F)c2F)cc1Cl,i
Cc1cccc(OCC(=O)N2CCN(C(c3ccccc3)c3ccccc3)CC2)c1,15.4%

# Further results follow:
SMILES,Mtb H37Rv
CCOc1cc(C(N)=O)cc(Cl)c1OCC,i
C=CCc1ccc(OCCCOc2ccccc2Br)c(OC)c1,3.2%
O=C(c1ccccc1Oc1nnnn1-c1ccccc1)N1CCOCC1,i
CN1C(=O)c2ccc(NC(=O)c3ccc4c5c(cccc35)CC4)cc2C1=O,2.2%
CCC(=O)N1CCN(c2ccc(NC(=O)c3ccccc3I)cc2)CC1,i
COc1ccc(-c2nn(CCC#N)cc2CO)cc1,i
Cc1ccc(S(=O)(=O)NCCc2ccccc2)cc1,2.1%
O=C1NC(=O)c2cc(S(=O)(=O)Nc3cccc(Cl)c3)cc3cccc1c23,i
O=C(Nc1ccc(F)cc1F)c1sc2cc(Cl)ccc2c1Cl,i
Cc1ccc(-c2nn(CCC(=O)N3CCCC3)c(=O)c3ccccc23)cc1,i
COc1ccc(-c2csc(NC(=O)Cn3cnc4ccccc4c3=O)n2)cc1,2.1%
O=C(c1cc2cc([N+](=O)[O-])ccc2oc1=O)N1CCN(Cc2ccccc2)CC1,i

# Another view of part of the listing above:
mol: O=C(c1ccccc1Oc1nnnn1-c1ccccc1)N1CCOCC1
  Mtb H37Rv: i
mol: CN1C(=O)c2ccc(NC(=O)c3ccc4c5c(cccc35)CC4)cc2C1=O
  Mtb H37Rv: 2.2%
mol: CCC(=O)N1CCN(c2ccc(NC(=O)c3ccccc3I)cc2)CC1
  Mtb H37Rv: i

# Continuation:
SMILES,Mtb H37Rv
Cc1ccc(C)n1-c1ccc2c(c1)OCO2,1.2%
Cc1cccc(-c2nc3c(c(SCC(=O)N4CCCCC4)n2)CCCC3)c1,6.1%
COc1ccc(NC(=O)NCc2ccc(Cl)cc2)cc1,0.5%
CC(C)C(=O)Nc1ccc2oc(-c3ccccc3F)nc2c1,i
O=C(c1cc2nc(-c3ccco3)cc(C(F)(F)F)n2n1)N1CCN(c2ccccc2)CC1,i
Cc1ccccc1-c1nnc(NC(=O)Nc2ccc(C(C)(C)C)cc2)s1,1.1%
Cc1ccc(N=C(N)N=C(N)N)cc1Cl,i
CCOc1cc2c3c(c1)C(C)=CC(C)(C)N3C(=O)C2=O,2.5%
Cc1cccc(N(CC(=O)Nc2ccc(CC#N)cc2)S(=O)(=O)c2ccc(Cl)cc2)c1,i
CC(C)C(=O)Nc1cccc(NC(=S)NC(=O)c2ccccc2F)c1,i
Cc1cc(C)cc(C(=O)NC(=S)Nc2ccc(N3CCN(C(=O)c4cccs4)CC3)cc2)c1,i
CCSc1ccccc1C(=O)Nc1ccc([N+](=O)[O-])cc1OC,42.6%

# A draw from above in order of molar mass, rising.
SMILES,Mtb H37Rv
Cc1ccc(S(=O)(=O)NCCc2ccccc2)cc1,2.1%
COc1cccc(-n2nnnc2SCC(=O)Nc2ccccc2)c1,i
COc1ccc(CCNC(=O)C2CCN(C(=O)c3ccc([N+](=O)[O-])cc3)CC2)cc1,i

# Continuation:
SMILES,Mtb H37Rv
Cc1ccc2nc(-c3ccc(Br)c(NC(=O)c4ccc(F)cc4)c3)oc2c1,i
CCN(CC)CCN1C(=O)C(O)=C(C(=O)c2cccs2)C1c1cccc(Br)c1 (centres undefined),i
O=C(CCc1ccccc1)Nc1ccc(S(=O)(=O)NCCc2ccccc2)cc1,i
COc1ccc(C(=O)Nc2c(Cl)cc(Cl)cc2C(=O)NCc2cccnc2)cc1,i
Cc1ccc(-c2ccc(S(=O)(=O)N3CCCC3)cc2)cc1,3.5%
CCOC(=O)CNC(=S)Nc1cccc(OC)c1,i
O=C(CN(Cc1ccc(Cl)cc1)S(=O)(=O)c1ccccc1)NCc1ccccc1Cl,2.2%
CCCCNCCCCOc1ccc2ccccc2c1Br,1.63µg/mL*
CC1(C)CC(=O)C2=C(C1)Nc1[nH]c(=O)[nH]c(=O)c1C2c1ccc(F)cc1 (centres undefined),i
Cc1ccc(S(=O)(=O)N2C(=O)CCC2C(=O)Nc2ccc(Cl)c(C(F)(F)F)c2)cc1 (centres undefined),i
Cn1c(CC(=O)Nc2ccc(Cl)c(Cl)c2)nnc1SCC(=O)Nc1cc(C(F)(F)F)ccc1Cl,i
CCCN(CCC)S(=O)(=O)c1cc(OC)c(Br)cc1OC,0.3%
Cc1ccc(-n2c(CN3C(=O)c4ccccc4C3=O)nc3ccccc3c2=O)c(C)c1,0.1%
CC(=O)Nc1ccc(NC(=O)CN(c2ccc(C(C)C)cc2)S(C)(=O)=O)cc1,1.7%
COC(=O)c1cc(NC(=S)NCCc2c[nH]c3ccccc23)cc(C(=O)OC)c1,i
O=C1CCCC2=C1C(c1cccnc1)c1c(ccc3ccccc13)N2 (centres undefined),i
CC(=O)Nc1ccc(C(=O)CSc2nnc(C)s2)cc1,i
CCOC(=O)CSc1nc(C)c(C(C)=O)cc1C(N)=O,i
COc1ccc(NC(=S)Nc2c(C)nn(Cc3ccc(Cl)cc3Cl)c2C)cc1OC,i

# 3 consecutive compounds from above:
SMILES,Mtb H37Rv
CC(=O)Nc1ccc(C(=O)CSc2nnc(C)s2)cc1,i
CCOC(=O)CSc1nc(C)c(C(C)=O)cc1C(N)=O,i
COc1ccc(NC(=S)Nc2c(C)nn(Cc3ccc(Cl)cc3Cl)c2C)cc1OC,i

# High-throughput results as filed in PubChem BioAssay.
